High-throughput results (PubChem)
T cruzi repl: blocks replication of Trypanosoma cruzi. T. cruzi beta-gal in NIH3T3, luminescence, 90 h. inhibition, % (no concentration beside the values). actives 1.4% (n = 300,000);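 active means mean inhibition across valid replicates above about 55%, limit read from the data; inconclusive means mean below that limit but half or more replicates reach it; inactive means mean below it, under half of replicates reach it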;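 further: signal also drops with host cell toxicity which is not excluded here; 0% = plate median of DMSO wells and 100% = zero luminescence signal; higher percent means less beta-gal luminescence so fewer parasites; stock transfer was 50 nL into about 50 µL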
LANA-H2B inh: blocks KSHV LANA binding to histone H2A/H2B | cell-free LANA-H2A/H2B peptide, fluorescence polarization | Q9QR71 | actives 0.6% (n = 320,000) | inhibition, % (concentration not given with the values); in the data active means inhibition mostly above about 10%, no sharp cut-off; inactive means mostly below about 6.7%;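 further: stock transfer was 7.5 nL into about 10 µL; 0% = median of vehicle wells and 100% = median of positive control wells; one replicate is shown; the record names a cut of 25% in any replicate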
Target sequence (Q9QR71 whole entry, looked up): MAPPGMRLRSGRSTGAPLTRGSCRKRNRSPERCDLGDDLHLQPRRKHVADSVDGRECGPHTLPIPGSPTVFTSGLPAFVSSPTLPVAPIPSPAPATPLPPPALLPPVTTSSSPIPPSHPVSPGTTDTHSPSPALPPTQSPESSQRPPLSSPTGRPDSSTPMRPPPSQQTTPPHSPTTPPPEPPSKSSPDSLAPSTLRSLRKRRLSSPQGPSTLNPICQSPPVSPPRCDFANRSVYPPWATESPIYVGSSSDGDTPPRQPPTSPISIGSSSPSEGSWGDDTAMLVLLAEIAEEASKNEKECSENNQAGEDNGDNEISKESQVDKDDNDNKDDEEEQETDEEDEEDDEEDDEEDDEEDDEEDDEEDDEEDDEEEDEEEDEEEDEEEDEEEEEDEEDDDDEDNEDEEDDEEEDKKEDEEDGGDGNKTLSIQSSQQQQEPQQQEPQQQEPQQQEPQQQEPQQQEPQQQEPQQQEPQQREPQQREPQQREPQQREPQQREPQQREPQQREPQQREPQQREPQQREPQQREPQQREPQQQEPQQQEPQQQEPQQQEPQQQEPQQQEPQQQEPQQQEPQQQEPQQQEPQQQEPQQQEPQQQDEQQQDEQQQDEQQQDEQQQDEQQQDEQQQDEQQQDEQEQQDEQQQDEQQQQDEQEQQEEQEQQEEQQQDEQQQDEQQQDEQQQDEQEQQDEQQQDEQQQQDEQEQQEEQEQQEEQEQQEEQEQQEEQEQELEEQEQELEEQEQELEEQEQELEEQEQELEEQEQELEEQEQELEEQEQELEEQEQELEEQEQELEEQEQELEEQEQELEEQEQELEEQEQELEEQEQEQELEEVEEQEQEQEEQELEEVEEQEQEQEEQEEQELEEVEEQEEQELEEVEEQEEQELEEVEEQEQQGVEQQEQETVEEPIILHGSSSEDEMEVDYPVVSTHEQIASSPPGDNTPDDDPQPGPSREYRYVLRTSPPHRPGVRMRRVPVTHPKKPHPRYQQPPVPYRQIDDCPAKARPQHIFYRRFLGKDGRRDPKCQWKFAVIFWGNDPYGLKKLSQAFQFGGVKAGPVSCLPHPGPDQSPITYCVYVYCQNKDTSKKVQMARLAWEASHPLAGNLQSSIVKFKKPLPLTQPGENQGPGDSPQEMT
Calb FLC: affects C. albicans growth with fluconazole. growth inhibition, % (test concentration not listed). C. albicans CaCi-2 (fluconazole-resistant clinical isolate) + fluconazole, Alamar Blue growth, 48 h. actives 0.57% (n = 300,000);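 active means most replicates above 75%; inconclusive means exactly half above 75%; inactive means most below 75%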;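 further: all wells also contain fluconazole at 8 µg/ml as a sub-toxic cotreatment; 0% = median of DMSO wells and 100% = median of geldanamycin control wells; wells of about 8 µL received 7.5 nL stock; the first replicate is given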
Vif A3G: HIV-1 Vif–A3G interaction blockers – biochemical, TR-FRET, GST-Vif 1-94, biotin-A3G peptide, dose response retest, primary screen (AID 1117319); TR-FRET GST-Vif / biotin-A3G peptide binding; higher % means a stronger effect; test concentration not given here; strong numbers were not always called active; actives 0.57% (n = 260,000); inhibition, %, or IC50 in µM where a hit was titrated;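 active means above the screen mean plus three standard deviations and confirmed in dose response; inconclusive means results disagree or hit not tested in dose response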;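 further: Vif residues 1-94 fused to GST binding biotinylated APOBEC3G peptide 110-148; 0% = full assay without inhibitor and 100% = GST in place of GST-Vif; retest series ran down from 100 µM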
Beta cell apopt: beta cell apoptosis inhibition. INS-1E cytokine-induced death, ATP luminescence, 48 h; percent of positive-control rescue, neutral wells zero. protection from apoptosis, % (no concentration beside the values). actives 0.8% (n = 300,000). AID 435005;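 active means all replicates at 75% or more, or half of them and the mean; inconclusive means half reach 75% but not the mean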;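 further: 0% = cytokine-treated negative control wells and 100% = positive control rescue; higher means more ATP so stronger rescue from cytokine killing; wells of about 40 µL received 100 nL stock; the first replicate is given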
Bfl-1 A1 inh: inhibitors of the anti-apoptotic protein A1, read as caspase activation | MEF A1-2A-BIM cells, Caspase-Glo 3/7 luminescence, 3 h; percent of clofoctol response, vehicle zero | caspase activation, % (no concentration beside the values) | actives 0.066% (n = 330,000) | AID 2462;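 active means over half of replicate activation scores above 10%, or exactly half above 10 with the replicate mean above 10; inconclusive means replicate mean below 10 yet half the replicates above 10; inactive means over half of replicates below 10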;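 further: wells of about 30 µL received 50 nL stock; many hits fall short of the cut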
RanGTP-Impb inh: inhibitors of RanGTP-importin-beta interaction, primary screen, biochemical, FRET, CFP-Ran, YFP-importin-beta, homogeneous. cell-free CFP-Ran/YFP-importin-beta FRET ratio. inhibition, % (test concentration not listed). actives 1.1% (n = 300,000);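 active means most replicates above 15%; inconclusive means exactly half above 15%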;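 further: 0% = DMSO wells and 100% = Ran loaded with GDP instead of GTP; wells of about 40 µL received 100 nL stock; the first replicate is given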
AF4-AF9 inh: blocks AF4 peptide binding to human AF9; actives 0.47% (n = 350,000); AlphaScreen, biotin-AF4 peptide binding to FLAG-AF9; inhibition, % at 10 µM;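 active means every replicate reaching a set inhibition limit, whatever the replicate mean, cut at about 25% in these data; inconclusive means mean inhibition reaches that limit but some replicates miss it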;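 further: 0% = plate neutral control median and 100% = total signal loss; the record names both 10 and 1 µM as test concentration; the first replicate is given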
Starred values were filed as active, the others as inactive; i = inactive; u = inconclusive; x = no result given; & = joins results of further samples. Compounds were not picked by outcome (roughly 4.3% active in at least one column).

SMILES	T cruzi repl	LANA-H2B inh	Calb FLC	Vif A3G	Beta cell apopt	Bfl-1 A1 inh	RanGTP-Impb inh	AF4-AF9 inh
Cn1c(=O)oc2cc(S(=O)(=O)NCCC(=O)N3CCc4ccccc43)ccc21	-1	-1.2	14	1%	-8	0.5	-2.0	x
Cc1noc(C)c1COC(=O)c1cnc(Cl)c(Cl)c1	13	0.1	-4	3%	9	0.4	u	-3.0
O=C(Nc1ccc(C(F)(F)F)cc1)c1cnc(N2CCN(c3ccccn3)CC2)c2ccccc12	29	-3.7	-3	-31%	4	0.5	1.8	0.2
S=C(Nc1ccc(Br)cc1)NC1CCN(Cc2ccccc2)CC1	42	2.0	-13	x	12	-0.2	1.4	13
Cc1ccc(NC(=O)CN(C)C(=O)c2cc3c(s2)CCCCC3)cc1	x	21*	x	-16%	1	0.9	x	u
Cc1cc(NC(=O)CN2CCC(O)(c3cccc(F)c3)CC2)no1	6	4.2	0	-4%	-2	-1.2	-4.7	x
COc1ccc(-n2nc3ccccc3n2)cc1	-7	-6.5	1	3%	-6	-2.8	3.3	x
COC(=O)c1ccccc1N=Nc1c(C)noc1C	8	17	-1	-3%	4	1.1	u	x
COc1ccc(-c2nnc(CSc3nnc(-c4ccncc4)n3C3CCCCC3)o2)cc1OC	27	-4.0	-9	8%	-2	-0.4	u	x
CCc1ccccc1NC(=O)CSc1nc2[nH]c(=O)cc(O)c2s1	-2	0.1	-1	x	0	0.3	2.8	0.8
CNc1c(C(=O)O)ccc2c1C(=O)c1ccccc1C2=O	-34	-0.2	-11	25µM*	7	-0.2	4.9	9.3
Cc1ccc(C)c(NS(=O)(=O)c2csc(C(N)=O)c2)c1	-6	-2.2	2	x	-3	-0.1	5.8	-0.1
Cc1ccccc1NC(=O)Cn1nc(C)n2cccc2c1=O	-6	-0.3	-2	x	x	0.3	1.5	-3.6
CCCOC(=O)CCNc1n[nH]c(=O)[nH]c1=O	-6	-2.2	-7	0%	-1	0.3	7.6	x
O=C(/C=C/c1ccccc1[N+](=O)[O-])NNC(=O)c1ccncc1	x	-14	x	x	0	1.5	x	-6.7
Cc1ccc2nc(SCC(=O)Nc3cccc(S(=O)(=O)N(C)C)c3)[nH]c2c1	0	-5.3	-1	x	0	-0.2	-2.9	x
CCOc1ccc(S(=O)(=O)N2Cc3ccccc3CC2C(=O)O)cc1 (stereo not given)	7	-3.7	14	3%	-2	0.6	-1.2	1.0
Cc1ccc(S(=O)(=O)/N=C(/c2ccc(F)cc2)N2CCOCC2)cc1	2	-2.6	-3	-1%	-5	-0.1	0.7	-0.9
C=CCOc1ccccc1CN1CCC(Cc2ccccc2)CC1	22	-1.7	-15	x	13	-0.1	-4.3	5.3
CC1(C)Cc2nc(Cl)c(C(N)=O)cc2CO1	-12	-0.1	6	4%	-6	1.9	6.2	2.0
CC1CCN(C(=O)Cn2c(=O)n(Cc3ccco3)c(=O)c3sccc32)CC1	-4	3.9	-10	x	-4	0.0	1.9	-13
O=C(CSc1nnnn1-c1ccc(C(=O)O)cc1)NC1CC1	-8	2.1	-2	x	0	1.0	3.3	-1.2
Cc1ccc(C)c(N(C)S(=O)(=O)c2cccc3nsnc23)c1	-5	0.6	25	10%	-2	-0.1	4.4	x
O=C(Nc1cccc(Cl)c1)N(CCCN1CCOCC1)Cc1ccccc1F	2	-2.7	7	8%	-3	u	5.6	4.9
CCN(CC)C(=O)Cn1cc(C(=O)C2CC2)c2ccccc21	-8	8.2	-7	-3%	-1	-0.1	0.5	1.4
(cont.)
SMILES	T cruzi repl	LANA-H2B inh	Calb FLC	Vif A3G	Beta cell apopt	Bfl-1 A1 inh	RanGTP-Impb inh	AF4-AF9 inh
O=C(NCc1ccc(F)cc1)c1ccc(Br)o1	-6	2.6	2	-14%	2	-0.1	-2.6	-1.0
CN(CC(=O)NCc1ccco1)S(=O)(=O)c1cccc2cccnc12	5	-6.8	1	1%	x	1.7	2.4	-20
Cc1ccc(CN2CC(C(=O)N3CCN(S(=O)(=O)c4cccc(F)c4)CC3)CC2=O)cc1 (stereo not given)	-6	i	-8	x	1	1.8	x	-2.6
CN(C(=O)c1ccc(NC(=O)Cc2cccc(NC(=O)C3CCCN(C(=O)C4CCCCC4)C3)c2)cc1)C1CCCC1 (stereo not given)	x	-0.1	x	x	-2	-0.1	x	1.4
Cc1cc(C)nc(SCC(=O)NCC2COc3ccccc3O2)n1 (stereo not given)	x	-0.2	x	-10%	-2	1.8	x	-6.7
CC1=C(C)CC(C(=O)Nc2nccs2)C(C(=O)O)C1 (stereo not given)	-10	-4.5	36	x	-1	0.6	1.0	-3.6
COc1ccc(CNC(=O)COC(=O)c2ccc(F)c(S(=O)(=O)N3CCCCC3)c2)cc1OC	-3	x	18	3%	x	x	-1.6	11
Nc1c2c(nn1-c1ccc(C(=O)O)cc1)CNC2	1	-4.1	-2	-2%	0	-0.1	-2.9	-1.1
COc1cccc2c1C(=O)C=C(C)C2=O	-15	0.3	-39	x	22	0.2	3.3	-24
CN(CC(=O)NCCc1ccc(F)cc1)Cc1cccs1	-4	-4.8	5	-8%	-7	1.1	-2.9	-1.5
FC(F)(F)c1ccc(/C=N/N2CCN(Cc3ccccc3)CC2)cc1	-5	2.4	-10	x	-1	-1.3	-1.6	x
O=S(=O)(c1ccccc1)c1nc(NC2CC2)sc1Cl	20	-3.3	1	-2%	-5	-0.6	-10	1.2
CC(CCCCC(=O)Nc1ccc(C(F)(F)F)cc1)NCCc1cnc[nH]1 (stereo not given)	-13	-6.8	x	-1%	0	0.4	-1.0	x
O=C1CC(NCC2CCCO2)C(=O)N1c1ccc(F)cc1 (stereo not given)	-3	-1.2	2	-7%	-7	1.4	-2.4	-0.8
CC(=O)c1ccc(OCC(O)CN2CCN(S(=O)(=O)c3c(C)c(C)cc(C)c3C)CC2)cc1 (stereo not given)	24	1.8	-3	4%	4	0.3	0.1	-2.8
Cn1c(=O)c2c(SCC(=O)N3CCOCC3)nc(-c3ccccc3F)nc2n(C)c1=O	18	-2.3	0	1%	x	0.0	-0.5	1.1
CCOC(=O)/C=C1\Nc2ccccc2OC1=O	-25	2.1	-2	x	-2	1.7	3.4	-3.0
CCN(CC)c1ccc(C2C(C(=O)OC)=C(C)NC(C)=C2C(=O)OC)cc1	-4	-2.3	-14	16%	6	-0.7	3.0	x
CC(C)CN(C(=O)Cn1c(=O)cnc2ccccc21)C1CCS(=O)(=O)C1 (stereo not given)	11	2.2	3	5%	-4	-0.3	6.7	0.7
CC1CCC(NC(=O)CSc2nncn2C)CC1 (stereo not given)	x	0.1	x	-2%	-2	1.3	x	-2.1
CCOP(=O)(c1ccccc1)c1nc(-c2ccccc2C)oc1N1CCCCC1 (stereo not given)	13	6.2	-4	19%	1	-1.7	-1.8	x
O=C(C[C@@H]1C/C=C\C[C@H](Cc2ccc(F)cc2)C(=O)OCCNC1=O)N[C@H](CO)Cc1ccccc1	x	5.4	x	x	7	0.0	x	-0.8
CCOC(=O)c1cc2c(=O)n3ccccc3nc2n(Cc2ccco2)c1=NC(=O)c1ccc(OC)cc1OC	-5	1.2	32	x	x	-0.9	29*	-1.9
CC1C2NC(=O)N(Cc3ccccc3)C1(C)Oc1ccccc12 (stereo not given)	-3	-0.9	-11	1%	-18	0.9	-0.5	0.0
CC(=O)Nc1ccc(NC(=O)COc2ccc(-c3ccccc3)cc2)cc1	x	-0.2	-5	-6%	-1	-1.0	x	-4.0
Other entries.
SMILES	T cruzi repl	LANA-H2B inh	Calb FLC	Vif A3G	Beta cell apopt	Bfl-1 A1 inh	RanGTP-Impb inh	AF4-AF9 inh
CNC[C@H]1Oc2c(NC(=O)C3CCCCC3)cccc2C(=O)N([C@H](C)CO)C[C@@H]1C	x	-0.3	x	x	-5	0.6	x	-0.1&-2.8
CC(OC(=O)c1snc(C(=O)NC2CCCCC2)c1N)C(=O)NC(C)(C)C (stereo not given)	5	1.0	-10	-7%	12	-0.7	-3.5	x
COc1ccc(/C=N/n2c(=O)[nH]c3c([nH]c4ccc(Cl)cc43)c2=O)cc1CN1CCCCC1	-7	0.5	-1	4%	3	-0.5	4.3	-4.3
O=C(NC1CCCC1)C1CCCN(S(=O)(=O)c2ccc(F)cc2)C1 (stereo not given)	-7	-1.6	-3	x	-1	-0.6	2.5	-0.9
CSc1ccc(Cl)c(C(=O)Nc2nccs2)c1	-22	-2.2	-5	-9%	-4	0.1	3.0	5.5
CCOC(=O)c1cccc(NC(=O)CNS(=O)(=O)c2cccs2)c1	-5	-1.4	1	2%	x	0.8	-11	x
CN(C(=O)CSc1nnc(-c2ccc(Cl)cc2)n1CC1CCCO1)C1CCS(=O)(=O)C1 (stereo not given)	-2	-0.4	-1	24%	-5	1.4	-0.6	0.8
COc1cc(OC)c(CNC2CCCCCC2)cc1Br	4	0.1	38	x	0	0.5	-3.9	-3.2
Cc1ccc2c(c1)N(CC(=O)NC1CCCC1)C(=O)C(C)O2 (stereo not given)	9	4.0	-12	x	0	0.3	2.4	-14
CC1(C)C(=O)Nc2ccccc2N1C(=O)CN1C(=O)NC(CCc2ccccc2)C1=O (stereo not given)	-13	-0.9	10	-9%	-2	0.4	-1.8	2.2
CC1CCCN(CCC(=O)Nc2ccc(Br)cc2)C1 (stereo not given)	20	-3.9	-7	5%	0	1.6	-4.8	x
Cc1cc(C)c(C)c(S(=O)(=O)N2CCC(C(=O)Nc3ccncc3)CC2)c1C	24	2.9	-6	x	4	-0.4	0.9	-1.3
Cc1cccc(NC(=O)CSc2nnc(-c3ccncc3)n2CC2CCCO2)c1 (stereo not given)	-7	-1.7	-3	-2%	-2	-0.1	-1.9	2.4
COc1ccc(-n2nc3c(c2NC(=O)C(C)Oc2ccccc2)CS(=O)C3)cc1 (stereo not given)	-16	11	8	6%	-1	-0.3	0.1	2.1
COC(=O)NC1CCC(NC(=O)OC)CC1 (stereo not given)	-7	0.7	3	1%	-2	0.0	0.0	x
O=C(COc1ccc(F)cc1)N/N=C/c1cccc2cccnc12	-7	0.4	-7	1%	-4	0.3	5.0	-7.2
O=C(CN1C(=O)COc2ccc(Cl)cc21)Nc1ccccn1	-6	-6.1	-13	x	-7	0.6	-4.6	-8.9
Cc1cc(OCC(=O)NCCc2ccc(S(N)(=O)=O)cc2)c2c(C)c(C)c(=O)oc2c1	-8	-1.4	-2	x	1	-0.6	-0.9	-1.6
CCC(NS(=O)(=O)c1ccc2c(c1)Cc1cc(S(=O)(=O)NC(CC)C(=O)O)ccc1-2)C(=O)O (stereo not given)	-8	3.4	8	x	-2	0.2	2.2	-2.3
Cc1ccc(S(=O)(=O)NC2=C(N3CCN(Cc4ccccc4)CC3)C(=O)c3ccccc3C2=O)cc1	-7	1.1	26	23%	29	0.2	9.1	35*
O=S(=O)(Cc1ccccc1)NCC1CCCO1 (stereo not given)	-5	-1.8	-2	6%	-1	-0.2	-0.9	x
COc1cccc(CC(=O)Nc2cc(C(F)(F)F)ccc2N2CCCC2)c1	3	-0.3	-10	x	1	-1.0	-2.2	-0.3
